Screening data: PubChem, several laboratories
Arbovirus anti = arbovirus infection inhibition; arbovirus infection cell-based antiviral screen; inhibition, % at 10 µM; 200,000 tested, 0.37% active; AID 1251;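 active = inhibition from about 30%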;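 note: bluetongue infection of BSR cells; cell survival read as ATP light after 72 h; 0% = infected wells without compound and 100% = uninfected wells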
Mtb bLac sens = beta-lactam sensitization of Mtb H37Rv; M. tuberculosis H37Rv growth with meropenem, percent inhibition; hits of this screen are not shown here; inhibition, % at 25 µM; 330,000 tested, 0.27% active;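 active = about 74% or more and at least 40 points above the plate without the antibiotic, then above 30% in a dose series; inconclusive = first-round hits that could not be retested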;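 note: growth measured after seven days incubation then overnight dye step; 0% = bacteria only wells and 100% = bacteria with antibiotic; twin plates without the antibiotic show which effects depend on it; some results filed as inactive read as strong as hits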
YopH PTP inh = YopH (Yersinia) phosphatase inhibition. fluorescence Ex485/Em525. inhibition, %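 (about 10 µM by stock and volumes)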. AID 898. 140,000 tested, 0.16% active;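 active = inhibition of 50% or more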;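 note: controls were vehicle for no effect and minimum signal wells for full effect; inactives centre near -20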
Mtb H37Rv = M. tuberculosis H37Rv growth inhibitors, H37Rv strain (AID 1626); 220,000 tested, 0.95% active; M. tuberculosis H37Rv growth inhibition; higher % means a stronger effect; inhibition, % at 10 µM; hits with a dose series show IC50 in µM;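 active = confirmed in a dose series; inconclusive = inhibition above 80% but not taken into the dose series; inactive = below 80% or under 30% at every dose of the series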;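 note: bacteria incubated seven days before Alamar blue readout; 0% = bacteria only wells and 100% = bacteria with antibiotic wells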
RecA splice inh = Mtb RecA intein splicing inhibition; P9WHJ3; cell-free RecA intein splicing, fluorescence; inhibition, %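 (about 9 µM by stock and volumes)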; 290,000 tested, 0.75% active; AID 2221; in the data active = inhibition above about 30%; inconclusive = no clear call, values can overlap the other calls;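 note: 0% = vehicle wells and 100% = reference inhibitor control wells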
Target sequence (P9WHJ3 whole entry, looked up, canonical isoform): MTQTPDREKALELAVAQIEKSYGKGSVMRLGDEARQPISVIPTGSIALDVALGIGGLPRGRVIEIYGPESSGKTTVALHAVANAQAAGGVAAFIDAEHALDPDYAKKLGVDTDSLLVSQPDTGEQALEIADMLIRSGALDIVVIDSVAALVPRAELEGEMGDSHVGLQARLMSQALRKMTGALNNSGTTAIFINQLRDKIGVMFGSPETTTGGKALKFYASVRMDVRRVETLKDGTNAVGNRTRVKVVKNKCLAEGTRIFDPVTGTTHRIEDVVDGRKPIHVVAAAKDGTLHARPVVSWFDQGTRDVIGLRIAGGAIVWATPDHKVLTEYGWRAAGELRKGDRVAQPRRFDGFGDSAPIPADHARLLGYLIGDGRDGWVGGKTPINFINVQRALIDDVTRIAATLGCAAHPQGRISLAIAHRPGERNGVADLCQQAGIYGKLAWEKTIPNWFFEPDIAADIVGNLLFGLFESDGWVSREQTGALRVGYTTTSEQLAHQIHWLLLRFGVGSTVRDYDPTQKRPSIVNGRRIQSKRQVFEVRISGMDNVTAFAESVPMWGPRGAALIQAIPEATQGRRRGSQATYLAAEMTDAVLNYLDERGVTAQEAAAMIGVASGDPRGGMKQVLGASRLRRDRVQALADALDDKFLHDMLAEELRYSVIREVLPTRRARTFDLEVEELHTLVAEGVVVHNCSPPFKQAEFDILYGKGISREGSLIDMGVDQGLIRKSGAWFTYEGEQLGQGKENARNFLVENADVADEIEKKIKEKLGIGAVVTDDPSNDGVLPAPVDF
Arbovirus anti repeat = recorded beside Arbovirus anti, whose call it bears; inhibition, %; measured here: 10K subset replicate screen; many hits read low in the repeat;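 first of two repeat runs on a subset; 0% = infected and 100% = uninfected wells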
* hit, by the source's call; ? = inconclusive; nt = no result given.

SMILES	Arbovirus anti	Mtb bLac sens	YopH PTP inh	Mtb H37Rv	RecA splice inh	others
O=C(O)CN1C(=O)C2C3CC(C2C1=O)C1C(c2ccc(F)cc2)c2sc(=O)[nH]c2SC31 (stereo not given)	2	7	nt	nt	nt
COc1cc(/C=C/C(=O)OCC(=O)Nc2c(C)n(C)n(-c3ccccc3)c2=O)ccc1OCC#N	5	-6	nt	-1%	2.3
COc1ccccc1CC(=O)NNS(=O)(=O)c1cccc([N+](=O)[O-])c1	nt	1	nt	nt	-4.1
COc1ccc(N/C=C(\C#N)S(=O)(=O)c2ccc(OC)cc2)cc1	nt	0	nt	nt	-0.7
FC(F)(F)Oc1ccc(Nc2nc(N3CCOCC3)nc(N3CCOCC3)n2)cc1	nt	1	nt	nt	-2.0
Cc1c(C(=O)NCCCc2ccccc2)cccc1[N+](=O)[O-]	2	6	-24	3%	2.5
OC1(c2ccccn2)COc2ccccc2O1 (stereo not given)	nt	-8	nt	4%	-2.7
COc1ccc(CCNc2nnc(C)c(=O)[nH]2)cc1OC	4	0	-20	14%	1.4
Cc1ccc(SCC(=O)N2CCc3ccccc32)cc1	-1	10	-26	-3%	-0.8
NC(=O)C1CCCN(C(=S)Nc2ccccc2)C1 (stereo not given)	2	-4	-34	-3%	-2.7
CCOc1ccc(CNCCCSc2ncccn2)cc1OC	nt	2	nt	nt	-1.2
O=C(c1nn(Cc2ccccc2)c(=O)c2ccccc12)N1CCc2ccccc2C1	8	-3	0	7%	-1.0
CCOCCn1c(SC(C)C(C)=O)nc2c1c(=O)[nH]c(=O)n2C (stereo not given)	nt	2	nt	0%	0.7
CCC(Cc1ccccc1)NC(=O)CSc1ccsc1[N+](=O)[O-] (stereo not given)	7	1	-6	-9%	4.3
O=C(Nc1ccccc1)C1=C[C@@H](C2CC2)C[C@@H](OCc2ccc(CO)cc2)O1	-2	23	nt	nt	3.9
CCn1c(=O)c2c(nc(SCc3ccccn3)n2C)n(C)c1=O	11	nt	-28	4%	-1.7
O=S(=O)(Nc1ccon1)c1cc(Cl)ccc1Cl	nt	1	nt	nt	-0.2
CCOC(=O)Cc1csc(NC(=O)Cc2ccccc2[N+](=O)[O-])n1	1	-12	nt	-7%	-1.0
CC(NC(=O)Cc1ccsc1)c1ccc(Cl)cc1Cl (stereo not given)	nt	8	nt	nt	-0.2
COc1ccc(S(=O)(=O)CCc2nnc(NC(=O)c3cccs3)s2)cc1	8	-4	-18	-2%	-1.9
O=C(Cc1cn2ccsc2n1)Nc1nc2c(s1)CCCC2	-2	52	-45	-4%	0.9
COc1cc(/C=C(/NC(=O)c2ccccc2)C(=O)N2CCOCC2)c([N+](=O)[O-])cc1OC	nt	4	nt	nt	-4.4
N#CCSc1ccc(-c2nc3ccccc3[nH]2)cn1	-3	-2	nt	1%	5.1
CCOc1ccccc1CNC(=O)c1ccc(Sc2ccc(Cl)cc2)c(NC(C)=O)c1	-16	-1	-38	1%	13
Cc1ccc(/C([O-])=C(/C(=S)NCc2ccco2)[n+]2ccccc2)cc1[N+](=O)[O-]	5	-7	nt	-4%	1.8

Structural class: those above with a cyano group
SMILES	Arbovirus anti	Mtb bLac sens	YopH PTP inh	Mtb H37Rv	RecA splice inh	others
COc1cc(/C=C/C(=O)OCC(=O)Nc2c(C)n(C)n(-c3ccccc3)c2=O)ccc1OCC#N	5	-6	nt	-1%	2.3
COc1ccc(N/C=C(\C#N)S(=O)(=O)c2ccc(OC)cc2)cc1	nt	0	nt	nt	-0.7
N#CCSc1ccc(-c2nc3ccccc3[nH]2)cn1	-3	-2	nt	1%	5.1

(cont.)
SMILES	Arbovirus anti	Mtb bLac sens	YopH PTP inh	Mtb H37Rv	RecA splice inh	others
CCn1c(SCC(=O)N2CCC(C)CC2)nnc1-c1ccco1	nt	-6	nt	nt	3.5
CC(=O)Oc1ccc2cc(-c3ccccc3)c(=O)oc2c1	nt	-4	nt	12%	-145
COc1ccc2[nH]c(C)c(C(=O)CN3CCOCC3)c2c1	-4	1	-51	-7%	-1.0
Cc1ccc(C)c(N2CCN(CCCNC(=O)Cn3cc4c(n3)CCCCC4)CC2)c1	-6	12	-12	nt	2.4	Arbovirus anti repeat=-14
CCc1c(C)sc(NC(=O)c2cc(-c3cc(OC)ccc3OC)on2)c1C#N	-20	6	-46	-3%	-2.0
C(=N\n1cnnc1)/c1ccccn1	-4	4	-36	-7%	1.8
Cc1ccc(OC(=O)c2ccc(N3CCOCC3)c([N+](=O)[O-])c2)cc1	11	99	-36	54%	1.4
CC(C)c1ccc(NC(=O)COC(=O)c2c[nH]c(=O)[nH]c2=O)cc1	8	0	1	-5%	1.6
O=C(NCCc1ccc(F)cc1)C1CCCO1 (stereo not given)	nt	-4	nt	nt	0.4
O=C(c1ccco1)N1CCN(C(=O)c2cnn(-c3ccc(Cl)cc3)c2C2CCNCC2)CC1	nt	1	nt	nt	0.9
CN(Cc1ccccn1)C(=O)C1CCC(=O)N(Cc2cccc(F)c2)C1 (stereo not given)	nt	3	nt	nt	-0.4
O=C1CN(C(=O)/C=C/c2cccc(Cl)c2)c2ccccc2N1	-1	0	nt	8%	3.1
O=C(Nc1nc2ccccc2s1)C1c2ccccc2Oc2ccccc21	-18	nt	-11	>100µM*	5.2
O=C1CN2C(=Nc3ccc(Cl)cc3C2c2ccccc2)CN1 (stereo not given)	16	-9	-37	0%	7.0
CC1=NN2C(=N)/C(=C\c3cc(C)n(-c4ccccc4)c3C)C(=O)N=C2S1	1	-8	nt	8%	-7.3
CCOC(=O)c1cnc2nc(NCc3ccc(OCc4ccccc4)cc3)[nH]n2c1=O	21	-9	-62	-11%	-3.1
COCCNC(=O)C(NC(=O)C1CCCCC1)C12CC3CC(CC(C3)C1)C2 (stereo not given)	-5	3	nt	-9%	-3.6
Cc1ccc(S(=O)(=O)N(C)Cc2ccccc2)cc1C(=O)N1CCCCC1	nt	6	nt	nt	2.2
COc1ccc(C(=O)COC(=O)Cc2n[nH]c(=O)c3ccccc23)c(OC)c1	nt	-7	nt	nt	3.7
CC1(C)Cc2nc(Cl)c(C(=O)O)cc2CO1	2	3	nt	-5%	-2.9
CC1(C)CC(=O)C2=C(C1)OC(=O)CC2c1cccs1 (stereo not given)	nt	4	nt	2%	-6.8
COc1ccccc1-n1c(SCC(=O)NC2CCCCC2)nc2c(c1=O)SCC2	4	5	-37	3%	-0.3
CCn1c(-c2cccs2)nc2ccccc21	2	64	-2	?	-0.4
Cc1ccc(NC(=O)CN(c2ccc(C)cc2)S(=O)(=O)c2cccc3nonc23)cc1	1	-3	-1	12%	0.3
Cc1cc2c(c(=O)n1CCN(C)C)C(c1ccncc1)C(C#N)=C(N)O2 (stereo not given)	-1	-3	28	1%	1.4

3 entries drawn at random from the list so far:
SMILES	Arbovirus anti	Mtb bLac sens	YopH PTP inh	Mtb H37Rv	RecA splice inh	others
CCc1c(C)sc(NC(=O)c2cc(-c3cc(OC)ccc3OC)on2)c1C#N	-20	6	-46	-3%	-2.0
COc1ccc(N/C=C(\C#N)S(=O)(=O)c2ccc(OC)cc2)cc1	nt	0	nt	nt	-0.7
O=C(c1ccco1)N1CCN(C(=O)c2cnn(-c3ccc(Cl)cc3)c2C2CCNCC2)CC1	nt	1	nt	nt	0.9

More structures follow.
SMILES	Arbovirus anti	Mtb bLac sens	YopH PTP inh	Mtb H37Rv	RecA splice inh	others
O=C(Nc1cccc(NC(=O)c2cc([N+](=O)[O-])ccc2Cl)n1)c1cc([N+](=O)[O-])ccc1Cl	nt	6	nt	nt	17
S=C(/N=c1/sccn1Cc1ccccc1)NC1CC1	nt	10	nt	nt	0.8
CC(NC(=O)CCCCCNC(=O)N1CCn2c1nc1ccccc12)c1ccccc1 (stereo not given)	nt	-8	nt	nt	0.2
CCCCC(=O)NS(=O)(=O)c1ccc(NS(C)(=O)=O)cc1	2	6	-25	-7%	0.6
O=C(C(c1ccccc1)c1ccccc1)N1CCN(CC(O)COc2ccccc2)CC1 (stereo not given)	1	-5	-25	-3%	2.1
COc1ccc(C(OC(=O)c2ccco2)C(=O)NCC2CCCO2)cc1 (stereo not given)	7	3	-36	-11%	1.6
COC(=O)c1nn(-c2ccccc2)c(Cl)c1/C=N/OC(=O)c1ccc(Cl)c(Cl)c1	2	53	-19	24%	-3.8
O=C(CCS(=O)(=O)Cc1ccccc1)NC1CCCCC1	4	-7	-26	2%	-2.2
COc1cc(CN(C)CC2CCCN(CCc3cccc(C(F)(F)F)c3)C2)ccc1O (stereo not given)	nt	-4	nt	nt	-1.6
CC(=O)c1c(C(C)=O)c(C)n(-c2nc(-c3ccc(C)c(C)c3)c(C)s2)c1C	15	7	-21	-5%	-0.4
O=C(O)c1ccc(-c2nc(-c3ccc(Cl)cc3Cl)cs2)cc1	13	-8	nt	6%	4.1
COc1ccc(C2c3sc(=O)[nH]c3SC3C4CCC(C4)C23)cc1 (stereo not given)	1	-11	-32	-2%	8.7
COc1cccc(CNC(=O)CCNS(=O)(=O)c2ccc(Br)s2)c1	nt	-3	nt	nt	-1.0
O=C(O)c1ccccc1C(=O)Nc1ccc(-c2csc(-c3ccccc3)n2)cc1	-16	53	-13	1%	1.8
O=C(C1CC1)N1CCN(c2ccc([N+](=O)[O-])cc2)CC1	nt	1	nt	nt	4.4
Cn1ncc2c1ncn1nc(CCc3ccccc3)nc21	0	5	-51	-8%	2.6
c1ccc(CN2CCC(Nc3nc(-c4cccs4)nc4ccccc34)CC2)cc1	-35	100	nt	4.8µM*	5.8
CCOC(=O)N1CCN(C(=O)CS(=O)(=O)c2cn(Cc3cccc(F)c3)c3ccccc23)CC1	4	0	-20	-2%	0.0
CC(C)C12CN(C(=O)c3ccccc3[N+](=O)[O-])CC(C(C)C)(CN(C(=O)c3ccccc3[N+](=O)[O-])C1)C2=O	nt	-2	nt	3%	1.9
CCn1c(SCC(=O)c2cc(C)n(C)c2C)nnc1-c1ccccc1	4	6	3	11%	2.6
CCC(CC)NC(=O)Nc1ccccc1C	0	-5	nt	-1%	nt
O=C1CC(Nc2ccc(N3CCOCC3)cc2)C(=O)N1c1cccc(C(F)(F)F)c1 (stereo not given)	-5	0	-52	1%	-2.5	Arbovirus anti repeat=-9
COC(=O)c1[nH]c2ccc(F)cc2c1NC(=O)Nc1ccc(OC)cc1	-7	2	-34	1%	-1.0
CSc1sc(C)cc1C=O	10	-1	nt	5%	-1.8
CCN(CC)c1ccc(NC(=O)c2cc(Cl)ccc2OC)cc1	-17	nt	-31	51%	2.6
Next part:
SMILES	Arbovirus anti	Mtb bLac sens	YopH PTP inh	Mtb H37Rv	RecA splice inh	others
Cc1cccc(NC(=S)Nc2ccc(Br)cc2)c1	8	22	-23	16%	5.7
CC1CCCC(C)N1NC(=O)c1ccc(Cl)c(S(N)(=O)=O)c1 (stereo not given)	15	0	-15	-7%	1.8
COc1cc(CNCc2cccs2)cc(Br)c1OC	6	-23	6	-8%	-0.8
COc1ccc2nc(SCC(=O)NCc3ccccc3)[nH]c2c1	nt	-2	nt	nt	3.7
CCN1CCN(CCCNc2ncnc3nc[nH]c23)CC1	7	-2	-22	-1%	4.1
O=C(O)CC(NC(=O)c1sc2ccccc2c1Cl)c1ccc(OC2CCCC2)cc1 (stereo not given)	-13	4	nt	1%	9.9
COc1ccc(OC)c(CNCCc2ccc(OC)c(OC)c2)c1	nt	0	nt	nt	0.8
Cc1noc(NS(=O)(=O)c2ccc(NC(=O)CCC3CCCCC3)cc2)c1C	0	1	4	-5%	2.1
Cc1cc(N2CCOCC2)nc(-c2ccccc2O)n1	0	6	-14	44%	1.8
CC(CNS(=O)(=O)c1ccccc1)(c1ccccc1)N1CCOCC1 (stereo not given)	8	3	-39	-4%	nt
CC(C)Oc1ccc(/C(O)=C2/C(=O)C(=O)N(CCN(C)C)C2c2ccco2)cc1 (stereo not given)	6	-4	6	5%	5.5
COc1ccccc1/C=C/C=NC1C(=O)N(c2ccccc2)[N+](C)=C1C (stereo not given)	nt	-2	nt	-2%	-4.0
Cn1c(N)c(S(=O)(=O)N2CCN(C(=O)c3ccco3)CC2)c(=O)n(C)c1=O	16	-2	nt	-18%	0.4
CCc1cc[n+](-c2nc([O-])sc2C=O)cc1	5	14	-28	-9%	8.2
CCC(C)c1ccccc1NC(=O)CN(C)CC(=O)Nc1ccccc1SC (stereo not given)	nt	1	nt	nt	1.5
CC1CC(C)CN(S(=O)(=O)c2ccc3c(c2)oc(=O)n3CC(=O)N2CCOCC2)C1 (stereo not given)	3	-12	1	-1%	0.7
COc1cccc(NC(=O)C(Sc2nnc(-c3ccncc3)n2-c2ccc(Cl)cc2)c2ccccc2)c1 (stereo not given)	-21	83	-5	77%	-2.2
Cc1onc(C(=O)NCc2cccs2)c1[N+](=O)[O-]	11	-1	nt	-2%	1.1

The list is partial (hit frequency here may not be typical).
